# Screens: PubChem BioAssay, National Center for Advancing Translational Sciences (NCATS)
# ClpP mod: qHTS Assay for Activators of ClpP; ATP-dependent Clp protease proteolytic subunit (Bacillus subtilis (strain 168)), P80244; purified B. subtilis ClpP, FRET peptide cleavage, 20 min; Potency, µM (series often up to 57.5 µM), without a hit: at the top dose activity change, negative = active; hit rate 1.9% among 340,000; active = well fitted falling curve with a large enough effect; inconclusive = small, poorly fitted or top-dose-only effect; inactive = no such curve, though single readings can be large or run the other way; note: potency is the fitted concentration of half-maximal effect; the source files actives as falling curves though it sought activators and does not explain the sign; nearly all actives have a fitted effect of over 65% in size; many hits overshoot -100%
# Target sequence (P80244 whole entry, looked up): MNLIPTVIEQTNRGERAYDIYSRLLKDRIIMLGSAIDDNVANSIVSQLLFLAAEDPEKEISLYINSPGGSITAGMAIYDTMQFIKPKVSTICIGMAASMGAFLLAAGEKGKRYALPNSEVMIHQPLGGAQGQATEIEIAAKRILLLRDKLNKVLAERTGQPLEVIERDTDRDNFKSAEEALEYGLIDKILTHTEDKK
#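 Buffer: 100 mM Tris/HCl pH8, 100 mM KCl, 0.05% low protease BSA, 2.5% glycerol, 0.01% Tween-20. ClpP 10 microg/mL final; 20 min RT; delta FRET normalized to ADEP and DMSO controls.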
# Sfp inh: blocks B. subtilis Sfp PPTase activity; Q9F4F7; Potency, µM, without a hit: max response, negative = inhibition, actives largely listed as inhibitors; hit rate 3.5% among 310,000; Biochemical Sfp PPTase activity, qHTS; active = well fitted inhibition curve with a large enough effect; inconclusive = small, poorly fitted or top-dose-only effect, or another doubt; inactive = no such curve, though single readings can be large or run the other way;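 note: the enzyme is Sfp with the accession as filed and its product quenches rhodamine fluorescence; potency is the fitted concentration of half-maximal effect; 0% = enzyme reaction without inhibitor and -100% = no enzyme wells; top concentration of the series not given in the record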
#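 After 15 min at room temperature with compound, 15 nM Sfp received 5 uM rhodamine-CoA plus 12.5 uM BHQ-2-ybbR (50 mM Hepes pH 7.6, 10 mM MgCl2). Rate came from the fluorescence difference over 30 min, ex 525/em 598 nm.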
# TRPV1 PAM: potentiators of human vanilloid receptor 1 (TRPV1); hit rate 0.02% among 320,000; Q8NER1; potentiation, % at 8.33 µM; AID 540277; TRPV1-expressing cells, Fluo-8 calcium influx, capsaicin EC20 potentiation; host cell line not named in the record; control for the full effect not named in the record; active means potentiation above 80%; inconclusive means 30% to 80%; inactive means below 30%; note: 0% is about no effect
# Target sequence (Q8NER1 whole entry, looked up): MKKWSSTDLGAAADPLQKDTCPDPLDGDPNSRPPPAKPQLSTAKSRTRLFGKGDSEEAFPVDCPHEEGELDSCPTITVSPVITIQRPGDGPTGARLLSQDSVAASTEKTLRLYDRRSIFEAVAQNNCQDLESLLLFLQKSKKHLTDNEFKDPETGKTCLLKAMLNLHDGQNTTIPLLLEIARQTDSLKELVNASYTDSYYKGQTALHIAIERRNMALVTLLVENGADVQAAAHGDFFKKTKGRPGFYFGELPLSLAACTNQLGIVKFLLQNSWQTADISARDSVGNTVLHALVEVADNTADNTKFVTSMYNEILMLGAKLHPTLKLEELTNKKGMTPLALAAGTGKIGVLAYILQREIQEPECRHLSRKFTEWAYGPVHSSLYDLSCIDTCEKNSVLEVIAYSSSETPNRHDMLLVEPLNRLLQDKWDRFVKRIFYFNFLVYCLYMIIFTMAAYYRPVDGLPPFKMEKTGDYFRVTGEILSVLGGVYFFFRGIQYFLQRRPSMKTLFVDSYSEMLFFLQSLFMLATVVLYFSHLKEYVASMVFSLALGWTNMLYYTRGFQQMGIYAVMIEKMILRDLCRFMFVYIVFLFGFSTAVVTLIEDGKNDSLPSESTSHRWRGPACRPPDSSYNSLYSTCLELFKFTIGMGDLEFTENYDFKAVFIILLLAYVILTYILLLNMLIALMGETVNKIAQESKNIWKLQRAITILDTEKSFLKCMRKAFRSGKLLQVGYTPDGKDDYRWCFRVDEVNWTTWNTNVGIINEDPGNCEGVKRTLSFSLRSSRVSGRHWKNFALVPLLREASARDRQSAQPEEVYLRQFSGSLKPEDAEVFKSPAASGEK
#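 Cells expressing TRPV1 were dye-loaded with Fluo-8 and read kinetically: 10 s baseline, 3 min after compound (agonist portion), then 2 min after EC20 capsaicin (allosteric enhancer portion). Calcium-bound dye fluorescence at 480/520 nm.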
# Menin MLL FP FL: displaces fluorescein MLL peptide from human menin; 290,000 tested, under 10 active; Fluorescence polarization, fluorescein-MLL peptide displacement from menin; FP activity change, % at 61.4 µM; inconclusive = falling polarisation curve, or a change in total fluorescence; inactive = total fluorescence flat and polarisation flat or rising; no compound was filed as active; the % refers to the polarisation; negative = inhibition;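 note: % of control where 0% means no effect; inhibitors lower the polarisation; unlabelled MLL peptide was the positive control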
# PINK1 modulator: modulators of PINK1 expression; Potency, µM (series often up to 76.6 µM), for inactives: at the top dose activation (PINK1 increase), hits mostly activators; PINK1 immunofluorescence, high-content cytometry, 24 h; hit rate 0.2% among 410,000; AID 624263; active = well fitted activation curve with a large enough effect; inconclusive = small, poorly fitted or top-dose-only effect; inactive = flat fitted curve, though single readings scatter; cell line not stated here;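 note: potency is the fitted concentration of half-maximal effect; % of control where 0% means no effect; nearly all actives have a fitted effect of over 65% in size; a mitochondrial uncoupler was the plate control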
#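 Cells are seeded, rested 12 hours, then given compound at five concentrations or DMSO for 24 hours. After fixation, blocking and antibody staining, PINK1 amount and mitochondrial localization are scored; CCCP serves as control.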
# TRPML1 blocker: blocks the human TRPML1 channel | Q9GZU1 | TRPML1-inducible cells, Ca2+ dye fluorescence, FDSS; stronger effect = lower value; inhibition of EC80 agonist-evoked calcium signal | activity change, negative = inhibition, % (no concentration beside the values) | hit rate 0.02% among 390,000; in the data active means activity change below about -50%; inconclusive means about -30% to -50%; inactive means above about -30%;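 note: stimulus is agonist 54-4 at its EC80 concentration; % is set by controls: 0 for no effect and ±100 for the full control effect; compound concentration not given in the record; the text of the record puts the active cut at -80%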
#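 Tet-induced TRPML1-DL cells loaded with Ca8 no-wash calcium dye were read kinetically on FDSS. Compound addition was followed by EC80 agonist 54-4 (4 uM final); inhibition was read over 110 s.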
# TRPML1 ag: activates the human TRPML1 channel; TRPML1-expressing cells, Ca2+ dye fluorescence, FDSS; host cell line not named in the record; reference of the full effect not given here; Q9GZU1; activation, % (no concentration beside the values); hit rate 0.12% among 410,000; in the data active = activation above about 50%; inconclusive = about 30% to 50%; inactive = below about 30%; note: 0% is about no effect; the text of the record puts the active cut at 80%
#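 Calcium fluorescence on an FDSS kinetic reader gave the read-out. Tet-induced TRPML1-DL cells were plated overnight, dye-loaded (Ca8 with quencher, 45-90 min, room temperature, dark), then read 110 s after compound addition, and again 110 s after 4uM final 54-4 (EC80).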
# * marks the source's active call; other numbers are inactive results; ? = inconclusive; · = not tested or not shown; & = joins results of further samples; [ ] = dose if it differs, or a comment.
Compound,ClpP mod,Sfp inh,TRPV1 PAM,Menin MLL FP FL,PINK1 modulator,TRPML1 blocker,TRPML1 ag
Cc1ccc(NC(=O)COC(=O)CNC(=O)c2ccc(Cl)cc2Cl)cc1S(=O)(=O)N1CCOCC1,·,·,24,·,2.8%,10,-0.8
Cc1nc(SCC(=O)c2ccccc2)c(C#N)c(-c2ccco2)c1C(=O)NCc1ccco1,-6.2%,22µM*,1,?,1.7%,9,-0.6
CCOC(=O)c1c(-c2ccccc2)csc1NC(=O)CSc1ccccc1,0.9%,-8%,-4,8.3,0.2%,7,1.1
CCOc1ccc2[nH]c(=O)c(CN(CC3CCCN3CC)C(=O)NCc3ccccc3)cc2c1 (centres undefined),-30%,8%,-25,-4.2,-2.2%,13,-0.2
COC(=O)c1cc(NC(=O)c2oc(=O)c3ccccc3c2-c2ccccc2)cc(C(=O)OC)c1,-2.5%,·,·,·,0.7%,22,-0.9
Cc1cc2n(n1)C(c1ccc3c(c1)OCO3)Nc1ccccc1-2 (centres undefined),?,-2%,13,-0.6,0.6%,36,1.5
CCc1ccccc1NC(=O)CNC(=O)CNC(=O)C1CCCCC1,-4.2%,·,-5,·,-1.3%,-12,-0.1
O=C1CC(c2ccccc2C(F)(F)F)c2c(c3ccccc3[nH]c2=O)O1 (centres undefined),3.8%,·,·,·,1.8%,-7,-0.8
CC1CCN(C(=O)CCNS(=O)(=O)c2ccc(Br)cc2)CC1,1.2%,·,-4,·,-1.4%,7,-0.5
CN(CC(=O)Nc1ccc(S(=O)(=O)N2CCCC2)cc1)Cc1cccc(Cl)c1Cl,1.9%,3%,10,0.6,-2.0%,3,2.0
CC(=O)c1ccc(NC(=O)CSc2nnc3c(n2)[nH]c2ccccc23)cc1,-2.7%,·,·,·,0.7%,-7,2.5
CCOc1cc(Cl)c(S(=O)(=O)NCc2cccnc2)cc1Cl,-4.5%,8%,-28,-6.6,-1.4%,0,0.7

Compound,ClpP mod,Sfp inh,TRPV1 PAM,Menin MLL FP FL,PINK1 modulator,TRPML1 blocker,TRPML1 ag
COc1ccc(/C=C/C(=O)NC(C)C)cc1Br,-3.2%,16%,-6,-0.8,-1.3%[38.3 µM],10,0.0
Cc1[nH]c(=O)[nH]c(=O)c1NC(=O)c1cccs1,-0.3%,20%,?,2.4,8.3%[38.3 µM],8,-0.1
Cc1ccc(S(=O)(=O)N2CCN(C(=O)C(Cc3ccccc3)NC(=O)c3ccccc3)CC2)cc1 (centres undefined),-2.1%,·,-9,·,8.2%,-4,1.2
CCOC(=O)c1c(NC(=O)c2cc3nc(-c4ccc(Br)cc4)cc(C(F)(F)F)n3n2)sc(C(C)=O)c1C,-3.9%,·,·,·,1.1%,18,-0.7
CN1C(C(=O)NCc2cccc(C(F)(F)F)c2)CC2Cn3c(nc4ccccc43)C21 (centres undefined),-3.9%,9%,-17,4.8,-0.8%,-23,0.1
Cc1cccc(N(CC(O)CN(C)C)S(=O)(=O)c2ccccc2)c1 (centres undefined),2.5%,16%,12,1.3,-1.3%,1,0.1
O=S(=O)(Nc1ccccc1)C1CCCCC1,·,·,·,·,2.2%,-4,0.5
Nc1cc(C(=O)OCC(=O)N2CCC(Cc3ccccc3)CC2)ccc1Cl,?,·,-15,·,-0.5%,5,1.1
CCCC(=O)n1nc(-c2cccnc2)nc1N,0.7%,1%,12,-1.9,·,4,-0.4
c1ccc(-c2ccc(CN3CCSCC3)cc2)cc1,·,?,9,0.3,4.2%,67,1.0
Cc1cc(N/C=C2\CCCCC2=O)no1,-0.7%,17%,-5,-2.1,3.1%[38.3 µM],0,0.8
Cn1c(-c2c(N)n(CCCc3ccccc3)c3nc4ccccc4nc23)nc2ccccc21,-0.4%,18%,12,?,-0.2%[38.3 µM],-16,17

Compound,ClpP mod,Sfp inh,TRPV1 PAM,Menin MLL FP FL,PINK1 modulator,TRPML1 blocker,TRPML1 ag
Cc1ccc(NC(=O)CCCn2nc(C)c3sc4ccccc4c3c2=O)c(Cl)c1,?,·,·,·,0.2%,-3,0.2
CCOc1ccc(NC(=O)c2c3c(nc4ccccc24)CCC3)cc1,0.6%,-26%,-10,13,-0.5%,-1,-0.8
COC(=O)c1[nH]c2ccccc2c1NC(=O)c1ccccc1[N+](=O)[O-],-1.3%,-2%,13,7.0,2.6%,-3,0.1
Cc1cc2cc(CCNS(C)(=O)=O)c(=O)[nH]c2cc1C,?,24%,-1,3.8,3.3%,59,0.3
Cc1cc(C)n(Cc2ccc(C(=O)O)cc2)n1,-1.2%,7%,6,-5.8,·,8,0.7
COc1ccccc1/C=C/CN1CC(C)OC(C)C1 (centres undefined),-6.0%,-12%,-3,-4.4,18%[38.3 µM],16,2.6
CCOC(=O)c1ccccc1NC(=O)CN(c1ccccc1OC)S(=O)(=O)c1ccc(C)cc1,-22%,·,·,·,2.4%,58,0.4
Cc1ccc(S(=O)(=O)N2CCC(Oc3ccc(-n4cnnn4)cc3)CC2)cc1,1.2%&1.3%,4%,-14,3.0,-0.6%&-0.8%,-4&8,5.0&1.5
CP(=O)(COC(=O)c1ccccc1)COC(=O)c1ccccc1,0.9%,-5%,28,-0.9,-2.1%,41,0.0
CCOC(=O)N1CCN(C(=O)Cn2ccc3c(OC)cccc3c2=O)CC1,3.8%,9%,-7,0.4,-0.3%,-3,-0.5
CCOc1ccccc1C(=O)N(CN1CCCC1=O)c1ccc(C)c(Cl)c1,-4.8%,9%,-24,-2.0,-2.1%[38.3 µM],2,-0.3
COCCNc1nc(N)c([N+](=O)[O-])c(NCCO)n1,1.8%,6%,-4,5.2,3.8%,12,0.5

Compound,ClpP mod,Sfp inh,TRPV1 PAM,Menin MLL FP FL,PINK1 modulator,TRPML1 blocker,TRPML1 ag
Cc1nn(C)c(C)c1NC(=O)CSc1nnc(C)n1-c1ccccc1,1.4%,10%,8,-2.1,4.3%[38.3 µM],4,0.1
Cc1cc(Cl)ccc1NC(=O)C1CCCN(c2nnc(C)c3c(C)n(-c4ccccc4)nc23)C1 (centres undefined),-1.5%,·,·,·,0.2%,5,0.1
O=C(CSc1nc2ccccc2nc1Cc1ccc(Cl)cc1)N1CCN(c2ccccc2F)CC1,-1.1%,·,·,·,1.1%,8,0.4
O=C(NCc1ccco1)C(=S)N1CCCCC1,1.2%,10%,0,-1.3,1.9%,-2,-0.3
c1ccc2nc(-c3nccs3)ccc2c1,4.2%,3%,8,-3.2,0.9%,-15,-0.2
CO[C@H]1C=CO[C@@]2(C)Oc3c(C)c(O)c4c(O)c(c5c(nc6cc(C)ccn65)c4c3C2=O)NC(=O)C(C)=CC=C[C@H](C)[C@H](O)[C@@H](C)[C@@H](O)[C@@H](C)[C@H](OC(C)=O)[C@@H]1C,·,8%,-1,0.2,·,·,·
CCOC(=O)c1c(C)[nH]c(C)c1S(=O)(=O)N(C)CC(=O)Nc1cc(Cl)ccc1C,-0.5%,·,·,·,1.2%,15,-1.2
CC1(Oc2cccc(C#N)c2)CCN(Cc2csc3ccccc23)C1 (centres undefined),-9.1%,·,·,·,1.4%,-1,1.2
CCOC(=O)CSc1nnc(-c2ccc(S(=O)(=O)NCc3cccs3)cc2)o1,-9.7%,·,·,·,1.0%,16,0.6
Cc1noc(C)c1C(=O)Nc1nc(-c2ccc(F)cc2)cs1,6.8%,·,-17,·,2.5%,0,5.8
O=C(O)CCCNc1ccc(S(=O)(=O)Nc2ccccc2C(=O)O)cc1C(=O)O,16µM*,22%,-4,-8.8,0.1%[38.3 µM],20,4.6
O=C(CCNC(=O)c1ccccc1Cl)Nc1nc(-c2ccc(F)cc2)cs1,-0.6%,-5%,11,0.9,1.5%,-4,0.4

Compound,ClpP mod,Sfp inh,TRPV1 PAM,Menin MLL FP FL,PINK1 modulator,TRPML1 blocker,TRPML1 ag
O=C(O)C1CC2C3CC(C(=O)O)C(C3)C2C1 (centres undefined),-6.4%,·,·,·,1.4%,5,0.0
CC(=O)C1C(c2ccc(Cl)cc2)NC(=O)NC1(O)C(F)(F)F (centres undefined),-2.7%,28%,2,0.2,1.2%,6,-0.1
CCCNC(=O)C1CCN(S(=O)(=O)c2ccc3nc4c(c(C(=O)O)c3c2)CCCCC4)CC1,-0.3%,6%,10,2.2,-0.5%,-11,-0.7
Cc1cc(C)cc(N(CC(=O)N2CCc3ccccc32)S(=O)(=O)c2c(C)noc2C)c1,4.7%,7%,-2,-0.2,1.9%,30,0.8
CCOC(=O)N1CCN(C(=O)c2ccccc2NC(=O)COc2ccccc2C)CC1,-3.8%,2%,-4,3.6,0.1%,-5,0.0
Cc1ccc(N2CCN(C(=O)c3cc(COc4c(C)cccc4C)on3)CC2)c(C)c1,-1.5%,3%,20,·,-1.7%,-5,1.4
O=C(Nc1ccc(F)cc1F)N1CCCN(c2ccc([N+](=O)[O-])cn2)CC1,1.4%,15%,-1,2.6,0.0%,3,-0.6
CCc1nc2ccc(C(=O)NCCCN3CCCC3=O)cn2c1N(C)C(=O)c1cccc(OC)c1,-6.6%,·,·,·,1.5%,62,-0.8
CCc1cc2c(NCC(=O)O)ncnc2s1,-2.5%,8%,-7,2.5,2.3%,-11,-0.4
COC(=O)c1cccc(S(=O)(=O)N(Cc2ccco2)Cc2cc3ccc(OC)cc3[nH]c2=O)c1,?,-1%,5,0.8,14µM*,-7,0.7
COc1ccc(Cc2nnc(NC(=O)c3ccc(Cl)c([N+](=O)[O-])c3)s2)cc1,0.9%,20%,20,0.1,·,-24,-0.3
COc1ccc(-c2cc(C(F)(F)F)nc(S(C)(=O)=O)n2)cc1OC,-5.2%,-11%,1,3.6,-4.3%,6,-0.5
COc1ccccc1C(=O)Nc1ccnn1C1CCN(CCCc2ccccc2)CC1,-0.7%,6%,5,1.2,2.5%,11,0.3

# Compound profiles (already shown).
# COc1ccc(-c2cc(C(F)(F)F)nc(S(C)(=O)=O)n2)cc1OC as listed: ClpP mod: -5.2%; Sfp inh: -11%; TRPV1 PAM: 1; Menin MLL FP FL: 3.6; PINK1 modulator: -4.3%; TRPML1 blocker: 6; TRPML1 ag: -0.5
# Cc1ccc(N2CCN(C(=O)c3cc(COc4c(C)cccc4C)on3)CC2)c(C)c1 as listed: ClpP mod: -1.5%; Sfp inh: 3%; TRPV1 PAM: 20; Menin MLL FP FL: ·; PINK1 modulator: -1.7%; TRPML1 blocker: -5; TRPML1 ag: 1.4
